# PV pol inh = poliovirus RdRp elongation inhibitors, primary screen, biochemical, fluorescence polarization, total intensity; poliovirus polymerase elongation; hits give low values; % elongation, % (compound at 16.7 µg/mL); hit rate 0.66% among 150,000; in the data active = % elongation below about 90%; also: some results filed as inactive read as strong as hits
# Target sequence (P03300 1749-2209 limits assumed): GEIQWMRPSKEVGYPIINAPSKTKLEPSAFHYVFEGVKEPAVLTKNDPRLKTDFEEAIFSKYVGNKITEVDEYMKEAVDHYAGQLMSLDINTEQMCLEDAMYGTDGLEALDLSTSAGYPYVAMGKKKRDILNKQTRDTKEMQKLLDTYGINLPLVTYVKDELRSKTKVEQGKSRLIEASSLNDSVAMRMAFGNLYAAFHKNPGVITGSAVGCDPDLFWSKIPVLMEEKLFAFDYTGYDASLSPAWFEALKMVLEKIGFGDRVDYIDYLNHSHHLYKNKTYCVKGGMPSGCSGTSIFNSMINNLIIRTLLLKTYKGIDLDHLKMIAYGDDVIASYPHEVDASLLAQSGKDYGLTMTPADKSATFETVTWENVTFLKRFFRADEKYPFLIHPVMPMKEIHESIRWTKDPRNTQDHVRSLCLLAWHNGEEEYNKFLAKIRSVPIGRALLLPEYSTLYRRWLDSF
# MbtI inh = MbtI salicylate synthase inhibitors, primary screen, biochemical, fluorescence intensity | inhibition, %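 (about 17 µg/mL by stock and volumes)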 | purified MbtI enzyme, fluorescence intensity read-out | AID 493033, 2011 | hit rate 0.89% among 100,000;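 active = above 50% in both replicates, above 80% if mildly self-fluorescent; inactive = the rest, strongly fluorescent compounds included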;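 also: 0% = mean of negative and 100% = mean of positive controls; one replicate is shown; some compounds called inactive have numbers as strong as hits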
# MenB inh = M. tuberculosis MenB inhibitors, primary screen, biochemical, absorbance; 1,4-dihydroxy-2-naphthoyl-CoA synthase (Mycobacterium tuberculosis (strain ATCC 25618 / …; MenB enzyme assay, absorbance read-out; some hits fall short of the stated cut; inhibition, %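 (about 12 µg/mL by stock and volumes)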; hit rate 0.43% among 100,000; AID 540299, 2011;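 active = mean of two replicates above 30%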;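 also: 0% = no compound and 100% = wells with inactive enzyme; the first replicate is given; strong numbers were not always called active; inactives centre near -10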
# Target sequence (P9WNP5 whole entry, looked up): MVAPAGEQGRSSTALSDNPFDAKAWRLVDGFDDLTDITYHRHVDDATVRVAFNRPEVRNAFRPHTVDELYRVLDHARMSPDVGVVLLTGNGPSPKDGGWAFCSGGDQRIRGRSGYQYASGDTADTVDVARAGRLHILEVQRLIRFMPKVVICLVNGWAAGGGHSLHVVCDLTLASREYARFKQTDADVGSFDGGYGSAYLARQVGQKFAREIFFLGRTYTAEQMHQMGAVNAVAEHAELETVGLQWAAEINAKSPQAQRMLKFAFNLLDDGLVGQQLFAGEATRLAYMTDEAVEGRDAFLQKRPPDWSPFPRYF
# PV pol inh intensity = further read-out of PV pol inh, marked with its call; % elongation; measured here: total intensity read-out; formula for this scale not given here;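 total fluorescence in place of polarization; lower means less elongation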
# * marks the source's active call; other numbers are inactive results; i = inactive; / = not tested or not shown; & = joins results of further samples.
SMILES,PV pol inh,PV pol inh intensity,MbtI inh,MenB inh
O=C(NCCO)c1ccc2c(c1)OCO2,101,102,20,-49
Cc1ccc(SC(C)C(=O)O/N=C(\N)c2ccccn2)cc1 (configuration not stated),102,102,-6,-1
CCOc1cc2c(cc1/C=C1\NC(=S)NC1=O)OCO2,102,111,14,-56
O=C1CC(C(=O)NCc2ccco2)C2(CCCCC2)O1 (configuration not stated),104,103,-13,-5
Nc1ccc(S(=O)(=O)NCCC2=CCCCC2)cc1,102,101,5,-12
CC(=O)Nc1ccc(N=Cc2c[nH]c3ccccc23)cc1,102,106,/,-18
O=C(NC(Cc1ccccc1)C(=O)O)OCc1ccccc1 (configuration not stated),97,102,-12,-37
CC(OC(=O)c1cccc(S(=O)(=O)NCc2ccccc2)c1)C(=O)N1CCN(C(=O)c2ccco2)CC1 (configuration not stated),102,106,-6,-33
COc1ccc(/C=C2\CCOC2=O)cc1,98,104,36,-3
Cc1cc2c3c(c1)C1(C(=O)N3C(C)(C)CC2C)C(C#N)=C(N)Oc2cc(O)ccc21 (configuration not stated),100,103,2,1
COc1ccc(/C=c2\sc3nc4cc(Br)cnc4n3c2=O)cc1,99,100,8,-4
CCCCc1cc(=O)oc2c(C)c(OCC(=O)N3CCCC3)ccc12,102,106,-268,/
CCOc1ccc(NC2=NCCC(=O)N2Cc2cccs2)cc1,101,99,3,-21
O=C(O)C1C2C=CC3(O2)C1C(=O)N1c2ccccc2C2OCCC2C13 (configuration not stated),100,103,-7,-7
CCCCc1nc2ccccc2n1CC(=O)NC1=NCCS1,99,102,4,-3
C=CCN1C(=O)/C(=C\c2ccc(OCc3ccccc3C#N)cc2)C(=O)NC1=S,102,103,74*,-56
Cc1ccc(C)n1NC(=O)c1ccc(Oc2ncnc3sccc23)cc1,100,112,-11,-29
CC(C)CCC(=O)O,/,/,0,-27
COc1cc(N=c2scc(-c3ccc(S(=O)(=O)N4CCCC4)cc3)n2C)c(OC)cc1Cl,101,95,8,-23
CCOc1cc(/C=c2\sc3nc4c(C)c(C)ccc4n3c2=O)cc(Cl)c1O,46,259,/,-1
S=c1[nH]nc(Nc2cccc(Br)c2)s1,102,102,98*,-32
CCOC(=O)c1cnc2c(-c3ccccc3)c(C(F)(F)F)nn2c1C,101,103,1,19
N#C/C(=C(/O)CSc1ncnc2sc3c(c12)CCC3)c1nc2ccccc2[nH]1,109,122,40,-20
O=C(Cc1ccsc1)Nc1ccc(-n2cnnn2)cc1,/,/,0,-1
CC(=O)Nc1ccc2c(c1)S(=O)(=O)c1cc(NC(C)=O)ccc1-2,100,104,90,12

# Continuation.
SMILES,PV pol inh,PV pol inh intensity,MbtI inh,MenB inh
NC(=O)c1ccccc1OCC(=O)N1CCCc2ccccc21,101,98,12,-29
CC(Nc1nc(F)cc(=O)[nH]1)C(=O)O (configuration not stated),102,104,/,-1
O=c1[nH]c(=O)n([C@@H]2O[C@H](CO)[C@@H](O)[C@H]2O)cc1Br,98,97,/,-15
CCc1ccccc1NC(=O)NCc1c(-n2cccc2)sc2c1CCCC2,105,109,-13,-16
NC(=O)c1cc(-c2csc(N3CCCC3)n2)ccc1O,105,107,4,-25
Nc1nc(NC(=S)Nc2ccccc2)cc(=O)[nH]1,99,101,24,-40
O=C(C1CCCN(S(=O)(=O)Cc2ccccc2)C1)N1CCc2ccccc21 (configuration not stated),103,100,-4,-13
CCCN1CNc2nc3ccccc3n2C1,100,102,-4,5
CCN(CC)S(=O)(=O)c1ccc2[nH]c3c(c2c1)CCCC3,101,106,-8,-17
O=C1NC(CCc2ccccc2)C(=O)N1CCOc1ccccc1 (configuration not stated),106,99,0,-8
COc1ccc(OC)c(CC(=O)Nc2c(N)nc(N)nc2N)c1,26,231,20,-3
O=C1CSC(c2ccccc2)N1Nc1nc(N2CCOCC2)nc(N2CCOCC2)n1 (configuration not stated),102,101,-2,-9
CN(C1CCCCC1)S(=O)(=O)c1ccc(NC(=O)C2COc3ccccc3O2)cc1 (configuration not stated),106,106,2,-2
O=C(CP(=O)(O)CC(=O)c1ccccc1)c1ccccc1,101,102,-1,-15
CN(C)c1ccc(CN2CCc3c([nH]c4ccccc34)C2)cc1,100,103,-16,5
N/C(=N\OC(=O)c1ccsc1)c1ccc(Br)cc1,103,105,-13,-94
Cc1ccc(C)c(N2C(=O)CS/C2=C(/C#N)S(=O)(=O)c2ccccc2)c1,108,112,/,23
CCOC(=O)CN(C)Cc1ccc(Cl)c(Cl)c1,100,97,-1,-28
NNC(=O)c1ccc(-c2ccccc2F)cc1,101,113,-8,-11
CC1(C)Oc2ccc(C(=O)N3CCOCC3)cc2NC1=O,93,89,2,-43
N#Cc1ccc(COC(=O)c2cccnc2N2CCOCC2)cc1,100,101,-3,-12
CCC12CN3CCN(CC(C3)/C1=N/NC(=O)c1ccncc1)C2,101,102,6,13
O=C1CCCN1CN(C(=O)c1ccccc1)c1ccccc1,104,98,7,-12
O=C1CCc2cc(Cl)ccc21,105,104,11,-12
CCCn1c(Cc2ccc(OC)c(OC)c2)nc2ccccc21,103,100,-5,-31

# One compound at a time, from the list above. Screens in order: PV pol inh	PV pol inh intensity	MbtI inh	MenB inh
# CCOC(=O)c1cnc2c(-c3ccccc3)c(C(F)(F)F)nn2c1C is listed as 101	103	1	19
# O=C(NC(Cc1ccccc1)C(=O)O)OCc1ccccc1 (configuration not stated) is listed as 97	102	-12	-37
# O=C(C1CCCN(S(=O)(=O)Cc2ccccc2)C1)N1CCc2ccccc21 (configuration not stated) is listed as 103	100	-4	-13
# O=C1CCc2cc(Cl)ccc21 is listed as 105	104	11	-12

# Later entries
SMILES,PV pol inh,PV pol inh intensity,MbtI inh,MenB inh
NC(=O)CSc1nnc(COc2cccc3ccccc23)o1,101,104,-9,-15
O=C(Nc1ccc2c(c1)CCC2)c1ccc(Cl)nc1,105,99,-7,-40
O=C(CSc1nc2ccccc2c(=O)n1CC1CCCO1)Nc1cccc(C(F)(F)F)c1 (configuration not stated),103,97,-10,-14
CCN(Cc1ccncc1)C(=O)c1ccc(I)cc1,103,102,-6,/
CC(C)N(Cc1ccccc1)C(=O)C1=CCN(S(=O)(=O)c2ccc(F)cc2)CC1,99,94,-8,-4
COc1ccc2c(c1)CCc1c(C(=O)N3C(C)CCCC3C)noc1-2 (configuration not stated),103,104,11,-28
CCC(c1nnc(SCc2ccc(C(=O)OC)o2)n1Cc1ccccc1)N(C)C (configuration not stated),100,101,-2,8
CCN(CC)C(=O)C(C(F)(F)F)C(F)(F)F,102,101,-7,-33
O=C(Nc1c2c(nn1-c1ccc(Oc3ccccc3)cc1)CSC2)c1ccco1,101,90,-3,-30
Cc1cc(C)nc(SCCS(=O)Cc2ccc(Cl)cc2)n1 (configuration not stated),102,103,8,3
Cc1cccc(NC(=O)CSc2nnc(CCC(=O)O)c(=O)n2N)c1,108,106,/,-8
O=C(Nc1ccc(N2CCN(c3ccc(C(F)(F)F)cn3)CC2)nc1)Nc1ccccc1OC(F)(F)F,103,103,-64,-5
N#Cc1ccccc1NC(=O)COC(=O)c1oc2ccccc2c1CSC1CCCCC1,106,102,-6,-27
O=c1c2ccccc2[nH]c(=S)n1-c1cccc(S(=O)(=O)N2CCCC2)c1,99,107,2,-24
O=C(NCCc1ccccc1)c1ccoc1COc1ccccc1,101,99,0,9
COc1ccccc1C(=O)NC1CCN(c2ncccn2)CC1,102,100,33,2
COc1ccc(N=C(Nc2ccc(OC)cc2)SC)cc1,102,96,2,/
CCOC(=O)Nc1nnc(Cc2cccc(Br)c2)s1,100,102,-15,-23
NCC(c1ccccc1)c1ccccc1,103,110,0,-23
CN1CCN(Nc2oc(-c3ccc(F)cc3)nc2C#N)CC1,101,100,108,-3
O=C(Cc1ccc(-c2ccccc2)cc1)NN1CCOCC1,99,104,-5,4
O=C(Nc1ccc(-c2ccc3nncn3n2)cc1)C1CCCC1,103,105,-29,-8
CCCc1c(O)nc(SCC(=O)N(CC)CC)[nH]c1=O,102,102,4,-15
CCNc1c(NC(=O)c2cccs2)c(=O)oc2ccccc12,101,100,8,11
C(=C\c1ccccc1)/CNCc1ccco1,100,101,-7,-9

# Further entries follow.
SMILES,PV pol inh,PV pol inh intensity,MbtI inh,MenB inh
Cc1nn(-c2ccccc2)c2c1C(c1ccccc1)N1C=C(S(=O)(=O)N3CCCCC3)C=CC1=N2 (configuration not stated),101,114,-8,-1
CC1=C(C(=O)Nc2ccccc2)C2(CCCCC2)C(C#N)=C(S)N1,101,104,-8,-21
O=c1oc2ccccc2c2nccnc12,100,103,4,-20
CCCCCOc1ccc(C(=O)CCC(=O)O)cc1,99,105,-4,-15
O=C(O)CC(C(=O)O)n1c(O)c(/C=C2/C=Nc3ccccc32)sc1=S (configuration not stated),70,193,-58,-247
CC(CCc1ccccc1)NC(=O)COc1ccc(-c2nnco2)cc1 (configuration not stated),105,114,-15,-15
CC(C)(C)OC(=O)N1CCC(CNC(=O)c2ccc(F)cc2F)CC1,104,108,-9,-7
CC(C)(C)NS(=O)(=O)c1ccc2[nH]c3c(c2c1)CCCCC3,102,101,-45,-4
Cc1nn(CCC#N)c2c1P(=S)(N1CCCCC1)OC(c1ccccc1)=N2 (configuration not stated),90*,93*,51,-57
O=C(O)CCCc1nc(-c2ccccc2)no1,101,102,4,-13
CCN(C(=O)COc1ncnc2sc(-c3ccccc3)cc12)C1CCS(=O)(=O)C1 (configuration not stated),104,109,33,-16
Cc1c(C#N)oc2ccccc12,99,97,18,4
CCOc1cc(/C=C2\OC(=O)c3c2cc(C)[nH]c3=S)ccc1O,105,109,/,-80
Cc1cccc(NC(=O)CC23CC4CC(CC(C4)C2)C3)n1,102,101,-1,-41
CN(C)/C=C(\C#N)C(=O)C1CC1,103,102,25,-23
O=C1CN(C(=O)Cc2ccc(S(=O)(=O)N3CCCCC3)cc2)c2ccccc2N1,105,104,30,-29
C=CCC1(C2CCCC2)C(=O)NC(=O)NC1=O,103,95,/,-24
O=C(CSc1ccnc(=O)[nH]1)NCc1ccccc1,102,107,14,-4
CCC(C)(C)NS(=O)(=O)c1cc(-c2onc(C)c2C)ccc1C,101,101,4,-34
CN(C)CCNC(=O)c1ccc2c(c1)N(Cc1ccc(F)cc1)C(=O)c1ccccc1S2(=O)=O,100,103,8,5
N#CCc1c(Cl)sc2ccc(Cl)cc12,104,109,1,-13
O=C(COc1c(F)c(F)cc(F)c1F)c1ccc2c(c1)OCCO2,103,99,-1,-34
CCn1c(=O)cc(N2CCC(C)CC2)[nH]c1=O,105,97,13,10
CN1CCN(Cc2c(O)ccc3c(=O)c(-c4ccccc4)coc23)CC1,104,102,114,-2
COCCNC(=O)Cc1nc2ccccc2n1CC(=O)Nc1ccc(S(=O)(=O)N2CCCC2)cc1,118,120,-7,-5

# Following part
SMILES,PV pol inh,PV pol inh intensity,MbtI inh,MenB inh
CSc1nc2c(c(=O)[nH]1)C(c1ccc(C(C)C)cc1)C1=C(CC(C)(C)CC1=O)N2 (configuration not stated),98,101,13,-45
O=C(c1c(F)cccc1F)N1CCCC(c2nc(-c3cccs3)no2)C1 (configuration not stated),100,109,-4,-54
CCc1n[nH]c(=O)c2cc3sccc3n12,104,103,-2,4
Cc1noc(C)c1CC(=O)OCc1ccc(C#N)cc1,99,99,19,-18
CCc1c(C)[nH]n(CCC#N)c1=O,100,103,-4,-1
CN(C)C(=O)Oc1ccc(-c2ccccc2)cc1,102,102,-16,-19
COC(=O)c1ccc2c(c1)n(CCO)c(C)[n+]2CCO,98,103,5,12
Cc1[nH]c2ccccc2c1C(=O)COC(=O)c1ccc2c(=O)n3c(nc2c1)CCC3,103,106,-20,-26
Cc1cc(O)cc(=O)n1C,104,101,24,-101
O=S(=O)(c1ccc2ccccc2c1)N1CCCc2ccccc21,101,102,4,-29
Cc1ccc(-n2c(C)cc(C(=O)CN3CCC(C)CC3)c2C)cc1,101,103,2,13
NNC(=O)Cn1c2ccccc2c2ccccc21,106,111,-16,7
O=c1[nH]c2ccccc2nc1/C=C(\O)c1ccccc1,98&103,100&105,-4&-5,-52
Cc1cccc(NS(=O)(=O)c2c(C)noc2C)c1,106,109,2,-23
CCN1CCN(C2CC(=O)N(CC)C2=O)CC1 (configuration not stated),102,102,-19,-27
CCc1ccc(NC(=O)c2noc3c2CCc2ccccc2-3)cc1,102,103,-4,-14
O=C1OCCC1Sc1nnc(-c2cccs2)n1-c1ccccc1 (configuration not stated),99,103,-20,-3
O=C(CSc1ncn(-c2ccccc2)n1)NC1CCCCC1,102,104,4,14
CC1(C)Nc2ccccc2C(=O)N1NS(=O)(=O)c1ccccc1,100,104,i,-1
CC1=C(C(=O)Nc2cccc(C)n2)C(c2ccsc2)C2=C(CCCC2=O)N1 (configuration not stated),104,98,-4,-2
Cc1ccc(C)c(NC(=O)OC(C)(C)C)c1,102,102,-4,10
Cn1cnnc1SCc1ccc(C(=O)N/N=C2\CCCc3ccccc32)cc1,103,102,18,-24

# Looked up one by one from the entries so far (4):
SMILES,PV pol inh,PV pol inh intensity,MbtI inh,MenB inh
O=C(CSc1ncn(-c2ccccc2)n1)NC1CCCCC1,102,104,4,14
Cc1ccc(C)c(NC(=O)OC(C)(C)C)c1,102,102,-4,10
CCN1CCN(C2CC(=O)N(CC)C2=O)CC1 (configuration not stated),102,102,-19,-27
COC(=O)c1ccc2c(c1)n(CCO)c(C)[n+]2CCO,98,103,5,12

# Screening data as filed in PubChem.
